Bioassay records (PubChem)
PME-1 primary – blocks human protein phosphatase methylesterase 1. hit rate 0.53% among 320,000. inhibition, % at 5.9 µM. recombinant PME-1, FP-Rh probe fluorescence polarization;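 active means inhibition above the campaign mean of all compounds plus 3 SD, cut at about 26% in these data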;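 further: competitive labeling of PME-1 active site by serine hydrolase directed probe; 0% = PME-1 with DMSO and 100% = wells lacking PME-1 enzyme; inhibitors block probe labeling so polarization falls and inhibition rises; many of its hits are not listed in these tables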
PAD4 FP inh – PAD4 (human) enzyme inhibition | recombinant PAD4, RCA probe fluorescence polarization | inhibition, % at 6.36 µM | hit rate 0.41% among 330,000;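 active means percent inhibition above a cutoff equal to the mean of all tested compounds plus 3 SD, cut at about 15% in these data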;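 further: 0% = PAD4 with RCA probe and DMSO and 100% = probe without PAD4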
LYPLA2 inh – LYPLA2 (human) inhibition in PME1 counter-screen. O95372. recombinant LYPLA2, FP-Rh probe fluorescence polarization. inhibition, % at 5.9 µM. hit rate 0.38% among 320,000. AID 2177;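 active means inhibition above the screen-wide mean plus 3 SD, limit set per campaign, cut at about 26% in these data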;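 further: 0% = LYPLA2 with DMSO and 100% = wells lacking LYPLA2 enzyme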
PAFAH1B2 inh – inhibitors of human PAFAH1B2; recombinant PAFAH1B2, FP-rhodamine activity probe, fluorescence polarization; inhibition, % at 3.39 µM; hit rate 1.2% among 340,000;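 active means inhibition above the mean of all tested compounds plus 3 SD, cut at about 24% in these data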;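 further: 0% = enzyme with DMSO and 100% = wells lacking PAFAH1B2; many of its hits are not listed in these tables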
pPAFAH inh – pPAFAH (human) enzyme inhibition; Q13093; recombinant pPAFAH, FP-rhodamine probe fluorescence polarization; inhibition, % at 3.39 µM; hit rate 1.5% among 330,000; AID 463082;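 active means inhibition above the mean inhibition across the screen plus 3 SD, cut at about 25% in these data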;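 further: inhibitors block binding of the rhodamine activity-based probe so polarization drops; 0% = enzyme with DMSO and 100% = wells lacking pPAFAH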
PAFAH1B3 inh – blocks human PAF acetylhydrolase 1B catalytic subunit 3. inhibition, % at 3.39 µM. Q15102. hit rate 0.28% among 340,000. recombinant PAFAH1B3, FP-rhodamine probe, fluorescence polarization. AID 492972;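 active means inhibition above the screen-wide average of all tested compounds plus 3 SD, cut at about 25% in these data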;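 further: 0% = enzyme with DMSO only and 100% = wells lacking PAFAH1B3 protein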
Target sequence (Q15102 whole entry, looked up): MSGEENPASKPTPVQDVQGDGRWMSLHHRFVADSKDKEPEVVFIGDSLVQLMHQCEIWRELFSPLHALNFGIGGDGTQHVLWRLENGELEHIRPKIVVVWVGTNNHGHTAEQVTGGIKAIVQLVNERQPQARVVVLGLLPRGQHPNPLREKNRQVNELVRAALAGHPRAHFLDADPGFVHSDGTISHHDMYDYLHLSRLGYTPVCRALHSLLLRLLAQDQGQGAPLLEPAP
LYPLA1 counter – LYPLA1 (human) inhibition in PME1 counter-screen | O75608 | recombinant LYPLA1, FP-Rh probe fluorescence polarization | inhibition, % at 5.9 µM | hit rate 0.16% among 320,000 | AID 2174;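 active means inhibition above the mean of all tested compounds plus 3 SD, set per campaign, cut at about 14% in these data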;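 further: inhibitors block serine hydrolase probe labeling of LYPLA1 so polarization falls; 0% = enzyme with DMSO and 100% = wells lacking LYPLA1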
Target sequence (O75608 whole entry, looked up): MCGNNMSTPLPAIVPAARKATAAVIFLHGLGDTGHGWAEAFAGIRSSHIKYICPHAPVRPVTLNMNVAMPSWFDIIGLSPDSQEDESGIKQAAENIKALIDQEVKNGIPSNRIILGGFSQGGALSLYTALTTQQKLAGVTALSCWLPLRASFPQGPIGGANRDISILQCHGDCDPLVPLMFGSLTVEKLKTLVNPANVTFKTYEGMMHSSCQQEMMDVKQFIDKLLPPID
GSTO1 inh – counter-screen for RBBP9 inhibitors: inhibitors of human GSTO1. P78417. recombinant GSTO1, activity-based probe fluorescence polarization. inhibition, % at 5.96 µM. hit rate 1.1% among 300,000. AID 1974;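 active means inhibition above the campaign mean inhibition plus 3 SD, cut at about 35% in these data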;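 further: 0% = GSTO1-1 with DMSO and 100% = wells lacking GSTO1-1 enzyme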
* = called active by the depositor.

SMILES	PME-1 primary	PAD4 FP inh	LYPLA2 inh	PAFAH1B2 inh	pPAFAH inh	PAFAH1B3 inh	LYPLA1 counter	GSTO1 inh
Fc1ccc(-c2ccc(CNCc3ccccn3)o2)cc1Cl	-0.3	-0.5	-0.3	9.4	1.2	5.5	-2.7	-1.2
COc1ccc(N=C2S/C(=C\c3cc(C)n(C)c3C)C(=O)N2C)cc1	4.7	-4.8	4.7	4.7	11.1	5.6	0.9	0.9
c1ccc2c(CNc3ccc(CNc4ncn[nH]4)cc3)cccc2c1	9.6	-4.3	8.0	7.2	14.4	10.7	11.7	20.7
O=C(CSCc1ccc(F)cc1)N1CCN(c2ccc(F)cc2)CC1	1.4	5.8	-0.8	7.1	7.6	4.0	-4.2	-2.7
COc1cc2c(C(=O)N3CCOCC3)c(CSc3ccccc3)n(C)c2cc1Br	2.1	-0.9	-1.3	2.8	7.1	-6.0	-0.7	3.8
Cc1ccccc1C1CC(c2ccc(Br)cc2)Nc2nc(N)nn21 (configuration not stated)	4.6	0.0	15.3	-0.1	3.6	2.8	-5.2	1.1
COc1ccccc1-n1c(SCC(=O)N2CCc3ccccc32)nc2c(c1=O)SCC2	-1.2	-1.2	6.9	5.6	2.8	-4.6	2.2	-1.1
COc1ccc(N=C2SCC(c3ccc([N+](=O)[O-])cc3)=NN2CCO)cc1	3.3	2.4	14.3	0.4	12.2	11.0	2.1	1.0
COc1ccc(-n2c(SCCNCCO)nc3sc4c(c3c2=O)CCCC4)cc1	-1.3	-0.3	-1.1	6.4	2.3	1.6	0.5	15.4
COc1ccc(Nc2ncc(C(=O)N3CCN(c4ccc(F)cc4)CC3)c3ccccc23)cc1	4.7	-3.5	-3.2	0.8	9.8	11.8	-2.7	-5.6
COc1cc(NC(=O)CN2CCN(c3ccccc3)CC2)c(C)cc1[N+](=O)[O-]	-2.4	5.6	-5.1	5.5	-5.1	1.9	-1.9	-1.0
Cc1c(C#N)c(N=CN(C)C)c(C(=O)c2ccccc2)n1-c1ccccc1	1.2	-1.0	-0.4	3.3	3.4	5.0	2.7	0.7

Looked up above:
LYPLA1 counter, `c1ccc2c(CNc3ccc(CNc4ncn[nH]4)cc3)cccc2c1` reads 11.7
PAFAH1B3 inh, `COc1ccc(Nc2ncc(C(=O)N3CCN(c4ccc(F)cc4)CC3)c3ccccc23)cc1` reads 11.8

Part of the list above, comma-delimited:
Molecule,PME-1 primary,PAD4 FP inh,LYPLA2 inh,PAFAH1B2 inh,pPAFAH inh,PAFAH1B3 inh,LYPLA1 counter,GSTO1 inh
c1ccc2c(CNc3ccc(CNc4ncn[nH]4)cc3)cccc2c1,9.6,-4.3,8.0,7.2,14.4,10.7,11.7,20.7
COc1ccc(N=C2S/C(=C\c3cc(C)n(C)c3C)C(=O)N2C)cc1,4.7,-4.8,4.7,4.7,11.1,5.6,0.9,0.9

3 entries from above, with two lines to a compound:
Sequence of screens: PME-1 primary, PAD4 FP inh, LYPLA2 inh, PAFAH1B2 inh, pPAFAH inh, PAFAH1B3 inh, LYPLA1 counter, GSTO1 inh
COc1cc(NC(=O)CN2CCN(c3ccccc3)CC2)c(C)cc1[N+](=O)[O-]
→ -2.4, 5.6, -5.1, 5.5, -5.1, 1.9, -1.9, -1.0
COc1ccccc1-n1c(SCC(=O)N2CCc3ccccc32)nc2c(c1=O)SCC2
→ -1.2, -1.2, 6.9, 5.6, 2.8, -4.6, 2.2, -1.1
COc1ccc(N=C2S/C(=C\c3cc(C)n(C)c3C)C(=O)N2C)cc1
→ 4.7, -4.8, 4.7, 4.7, 11.1, 5.6, 0.9, 0.9

These rows are one share of the data; count on the stated rates, not on these rows.
